High-throughput results: PubChem, National Center for Advancing Translational Sciences (NCATS)
NS1 function inh: inhibitors of influenza NS1 protein function. S. cerevisiae slowed by influenza A NS1, growth recovery by OD600. Potency, µM (doses to about 46.1 µM), inactives show at the highest dose activity, positive = more growth. hit rate 0.4% among 270,000. AID 2326; active means well fitted rising curve with a large enough effect; inconclusive means small, poorly fitted or top-dose-only effect; inactive means no such curve, though single readings can be large or run the other way; further: nearly all actives have a fitted effect of over 50% in size
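Recovery from NS1-induced slow growth read by OD600 in budding yeast switched to galactose assay medium (pH 6.0, -URA) at 1:100 dilution. Compound 23 nl per well; the matching strain lacking NS1 serves as control.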
Cruzain inh noDet: inhibitors of Trypanosoma cruzi cruzain without detergent. P25779. purified cruzain, Z-FR-AMC fluorescence, no detergent. Potency, µM, for the others: max response, negative = inhibition, hits mostly inhibitors. hit rate 2.3% among 200,000;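 further: plate controls were enzyme without inhibitor for no effect and buffer without enzyme for full effect; nearly all actives have a fitted effect of over 40% in size; top concentration of the series not given in the record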
Target sequence (P25779 123-467 limits assumed): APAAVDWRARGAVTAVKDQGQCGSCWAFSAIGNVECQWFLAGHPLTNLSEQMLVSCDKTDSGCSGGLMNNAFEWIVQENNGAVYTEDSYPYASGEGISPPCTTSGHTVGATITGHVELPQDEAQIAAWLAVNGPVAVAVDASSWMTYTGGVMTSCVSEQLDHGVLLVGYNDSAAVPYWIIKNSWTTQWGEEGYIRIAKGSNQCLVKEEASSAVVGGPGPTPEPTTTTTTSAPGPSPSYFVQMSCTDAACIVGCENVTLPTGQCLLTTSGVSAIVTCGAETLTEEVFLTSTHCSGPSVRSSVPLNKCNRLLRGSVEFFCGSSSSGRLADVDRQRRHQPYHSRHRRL
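Purified cruzain at 1.5 nM, pre-incubated 15 min with compound at room temperature in 100 mM sodium acetate pH 5.5, 5 mM DTT, 0.00005% Triton X-100. Reaction started with 2 uM Z-FR-AMC; AMC fluorescence increase over 60 s gives rate.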
RE007 growth inh: less growth of the S. pombe RE007 Vpr strain | S. pombe RE007 Vpr strain, BacTiter-Glo ATP luminescence, 24 h; control for the full effect not named in the record | Potency, µM (highest dose often 92.2 µM), inactives show at the top dose activity change, negative = less growth | hit rate 0.21% among 360,000; active = well fitted falling curve with a large enough effect; inconclusive = small, poorly fitted or top-dose-only effect; inactive = no such curve, though single readings can be large or run the other way;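 further: on the % scale 0 is the no-effect control and ±100 the full control effect; nearly all actives have a fitted effect of over 50% in size; the assay follows cell death caused by Vpr and the record does not say whether a fall means rescue or toxicity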
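Fission yeast RE007 carrying one integrated HIV-1 vpr copy, seeded at OD 0.01 in PMG+AL medium with 23 nL pinned compound. Grown 24 h at 30 degrees; viability read by BacTiter-Glo luminescence after 5 min.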
Cruzain inh Det: inhibitors of Trypanosoma cruzi cruzain with detergent; P25779; purified cruzain, Z-FR-AMC fluorescence, 0.01% Triton; Potency, µM, inactives show max response, negative = inhibition, hits mostly inhibitors; hit rate 0.43% among 200,000; AID 1478;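 further: plate controls were neutral wells for no effect and buffer without enzyme for full effect; nearly all actives have a fitted effect of over 40% in size; top concentration of the series not given in the record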
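Cruzain (1.5 nM) preincubated 15 min at RT with compound in 100 mM sodium acetate pH 5.5, 5 mM DTT, 0.01% Triton X-100. Reaction started with 2 uM Z-FR-AMC; AMC fluorescence (ex 360/em 450 nm) change over 60 s gave rate.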
LASV entry inh: inhibitors of Lassa virus binding or cell entry; hit rate 1.2% among 300,000; Lassa virus pseudotype entry inhibition, cell reporter; control for the full effect not named in the record; Potency, µM (top dose mostly 37.9 µM), for the others: top-dose activity change, negative = inhibition, usual class: inhibitors; active means well fitted inhibition curve with a large enough effect; inconclusive means small, poorly fitted or top-dose-only effect, or effect the other way; inactive means flat fitted curve, though single readings scatter; tested in HEK293 cells; further: on the % scale 0 is the no-effect control and ±100 the full control effect; nearly all actives have a fitted effect of over 50% in size; luciferase read-out
SARS PLpro yeast: blocks SARS-CoV papain-like protease in a yeast assay; Potency, µM (titrated, usually from 32.9 µM), for the others: top-dose activity, positive = growth rescue; S. cerevisiae expressing SARS-CoV PLpro, growth rescue; control for the full effect not named in the record; hit rate 0.19% among 330,000; active means well fitted rising curve with a large enough effect; inconclusive means small, poorly fitted or top-dose-only effect; inactive means no such curve, though single readings can be large or run the other way; further: 0% is about no effect; nearly all actives have a fitted effect of over 55% in size; growth read by luminescence after 48 h
MARV entry inh: inhibitors of Marburg virus binding or cell entry; Marburg virus pseudotyped entry inhibition, cell reporter; control for the full effect not named in the record; about a third of the inactives were read at about 46 µM; Potency, µM (highest dose often 37.8 µM), for inactives: top-dose activity change, negative = inhibition, actives largely listed as inhibitors; hit rate 1.8% among 300,000; active = well fitted inhibition curve with a large enough effect; inconclusive = small, poorly fitted or top-dose-only effect, or effect the other way; inactive = flat fitted curve, though single readings scatter; tested in HEK293 cells; about a fifth of its hits are not listed in these tables; further: on the % scale 0 is the no-effect control and ±100 the full control effect; luciferase read-out
StopGo reporter: lowers the luciferase signal of an FMDV 2A StopGo reporter | human cells with a luciferase reporter of 2A StopGo recoding; control for the full effect not named in the record | Potency, µM (doses to about 57.9 µM), for the others: at the highest dose signal change, negative = less light | hit rate 1.2% among 410,000 | AID 1159524; active = well fitted falling curve with a large enough effect; inconclusive = small, poorly fitted or top-dose-only effect; inactive = no such curve, though single readings can be large or run the other way; tested in HEK293T cells; further: on the % scale 0 is the no-effect control and ±100 the full control effect; nearly all actives have a fitted effect of over 45% in size; luciferase light after 4 h
Active calls of the source: *; ? = inconclusive; . = no result given; & = joins results of further samples; [ ] = remark or other dose. Unless noted, the call rests on the fitted dose curve; in most records, active means well fitted curve in the direction sought with a large enough effect; inconclusive means small, poorly fitted or top-dose-only effect, or another doubt; inactive means no such curve, though single readings can be large; an effect the other way counts as inactive or inconclusive. Potency means the concentration at half of the fitted maximal effect.

SMILES	NS1 function inh	Cruzain inh noDet	RE007 growth inh	Cruzain inh Det	LASV entry inh	SARS PLpro yeast	MARV entry inh	StopGo reporter
CCOC(=O)c1[nH]c(C)c(CCC(=O)Nc2ccc(C(C)=O)cc2)c1C	.	-8.4%	.	1.9%	-6.2%[46.1 µM]	.	.	-6.5%
CN(C)C1(CNC(=O)Nc2ccc(Cl)c(Cl)c2)CCCCC1	2.4%	.	0.4%	.	?	1.1%	?	-15.8%
Fc1cccc(Cl)c1CSc1nnc(-c2ccncc2)o1	-33.8%	.	3.2%	.	.	-1.6%	.	75.0%[activator]
CCCSc1nnc2[nH]c(=O)cc(N)n12	9.8%	3.6%	-2.3%	-0.3%	-6.8%	9.7%	?	0.0%
CCOc1cc(/C=C2/NC(=O)N(Cc3ccccc3F)C2=O)ccc1O	7.5%	3.0%	13.5%	-21.2%	-25.0%	4.6%	15.8µM*	-12.9%
COc1ccccc1N1C(=O)CC(N2CCN(c3ccc(Cl)cc3)CC2)C1=O (configuration not stated)	-22.5%	.	-12.5%	.	.	1.9%	.	?
COc1ccc(CCNc2oc(Cc3ccccc3)nc2C#N)cc1OC	-7.0%	-7.2%	-1.1%	-5.6%	-14.7%	0.8%	?	14.1µM*
Cc1[nH]nc2c1[C@@H](c1ccccc1[N+](=O)[O-])C(C#N)=C(N)O2	5.1%	.	2.4%	.	11.4%[46.1 µM]	5.8%	5.4%[46.1 µM]	-16.7%
CCS(=O)(=O)c1ccc2oc(SCC(=O)NC(C)C3CC4CCC3C4)nc2c1 (configuration not stated)	-9.9%	-9.2%	-8.4%	0.8%	-15.8%	13.9%	18.6%	?
O=c1c2cn[nH]c2nc(SCc2ccccc2F)n1-c1ccc(Br)cc1	6.3%	0.5%	-7.2%	-5.4%	?	-18.2%	?	-20.5%
C/C(=C\C(=O)c1ccc(C)o1)Nc1ccc2c(c1)OCO2	-2.6%	-18.2%	-22.8%	0.8%	23.4%	?	-6.0%	43.8%[activator]
Cc1ccc(CN2C(=O)N/C(=C\c3ccc(-c4ccc(C(=O)O)cc4C)o3)C2=O)cc1	-0.1%	.	5.6%	.	.	0.0%	.	-9.8%
CCOC(=O)/C(=C\c1ccc([N+](=O)[O-])cc1)C(=O)c1cc(C(C)=O)c(Nc2ccccc2)s1	22.3%	?	-7.6%	-5.0%	?	-4.0%	?	15.8µM*
O=c1[nH]c(=S)n(C2CC2)c(O)c1/C=N/Nc1cccc2ccccc12	?	?	-22.1%	-4.0%	-3.2%	-5.9%	-0.8%	-11.5%
CC(=O)c1nn(-c2cccc(Br)c2)cc1C(=O)c1ccc(Br)cc1	5.2%	12.6µM*	29.3%	4.1%	?	.	?	-2.5%
C=CCN1C(=O)CSc2ccc(C(=O)NCCC3=CCCCC3)cc21	-98.5%	-7.1%	-8.0%	-1.6%	7.3µM*	-10.8%	?	?
O=C(COC(=O)CCc1ccccc1)NC(c1ccccc1)c1ccccc1	-7.3%	-2.2%	1.9%	-5.3%	13.9%	1.1%	0.5%	-12.9%
CC(C)(C)NC(=O)C(c1ccncc1)N(C(=O)Cn1nnc(-c2ccc(F)cc2)n1)c1cccc(F)c1 (configuration not stated)	0.7%	.	21.9%	.	17.7%	0.8%	?	-26.2%
COc1ccc(-n2c(=O)c3ccccc3n(CC(=O)NC3CCCC3)c2=O)c(OC)c1	-3.6%	-2.4%	20.4%	0.3%	-14.2%	-1.3%	-1.8%&5.2%	1.1%
Cc1cc(OCC(=O)NCC(O)c2ccccc2)c2c(C)c(C)c(=O)oc2c1 (configuration not stated)	-2.1%	.	8.0%	.	-15.3%[46.1 µM]	6.5%	-12.1%[46.1 µM]	26.2%
Cn1c(=O)c2[nH]c(Cc3ccsc3)nc2n(C)c1=O	.	.	6.9%	.	1.4%	.	-14.6%	-2.8%
O=C(CCCCCn1c(=O)[nH]c2ccccc2c1=O)NCCCN1CCN(c2ccccc2F)CC1	0.5%	8.3%	-17.8%	-0.8%	-8.2%	20.3%	?	?
O=C(COc1nsnc1N1CCOCC1)Nc1ccc([N+](=O)[O-])cc1	-1.1%	.	-4.6%	.	10.0%[46.1 µM]	0.7%	?	-9.5%
CCOc1ccc(/C=C(\C#N)C(=O)Nc2ccccn2)cc1	-5.2%	.	-2.3%	.	.	20.7%	.	62.7%[activator]

Pulled one by one from above:
SMILES	NS1 function inh	Cruzain inh noDet	RE007 growth inh	Cruzain inh Det	LASV entry inh	SARS PLpro yeast	MARV entry inh	StopGo reporter
Cc1cc(OCC(=O)NCC(O)c2ccccc2)c2c(C)c(C)c(=O)oc2c1 (configuration not stated)	-2.1%	.	8.0%	.	-15.3%[46.1 µM]	6.5%	-12.1%[46.1 µM]	26.2%
CCOc1ccc(/C=C(\C#N)C(=O)Nc2ccccn2)cc1	-5.2%	.	-2.3%	.	.	20.7%	.	62.7%[activator]

Remaining list, next part.
SMILES	NS1 function inh	Cruzain inh noDet	RE007 growth inh	Cruzain inh Det	LASV entry inh	SARS PLpro yeast	MARV entry inh	StopGo reporter
CCOc1ccc(N2C(=O)c3cccnc3C2Nc2ccc(OC)cc2)cc1 (configuration not stated)	-8.6%	4.0%	8.3%	-0.8%	-14.2%	-7.0%	17.8%	20.8%
CN1C(=O)NC(c2ccc(O)cc2)C2=C1CN(c1ccccc1)C2=O (configuration not stated)	0.1%	.	10.6%	.	.	-0.6%	.	-7.2%
O=C(C1CCN(S(=O)(=O)Cc2ccccc2)CC1)N1CCN(c2cccc(C(F)(F)F)c2)CC1	.	-3.1%	.	-3.3%	-1.3%[46.1 µM]	.	2.7%[46.1 µM]	-24.0%
CCC(Oc1cccc(Cl)c1)C(=O)N1CCCN(C)CC1 (configuration not stated)	0.3%	.	1.9%	.	.	-8.7%	.	-15.5%
O=C(CSc1nnc(-c2ccccn2)n1Cc1ccco1)c1ccc(-c2ccccc2)cc1	6.6%	?	-6.3%	-4.1%	-4.5%	2.5%	?	38.3%
O=C(CC1S/C(=N/N=C2CCCCCC2)NC1=O)Nc1ccc(Br)cc1F (configuration not stated)	-73.2%	.	8.7%	.	-1.1%	-14.8%	0.9%	?
C/C(=N\NC(=O)C1(C)CC1(Br)Br)c1ccc(NC(=O)c2ccc(C)o2)cc1 (configuration not stated)	-0.3%	-7.6%	-16.6%	-9.8%	?	-1.7%	?	0.0%
CCCCc1c(O)nc(SCC(=O)c2ccccc2)n(-c2ccccc2)c1=O	0.8%	.	9.3%	.	2.0%[46.1 µM]	1.0%	18.9%[46.1 µM]	7.7%
CC1CCCC(C)N1/N=C/c1cc(Br)c(O)c(Br)c1 (configuration not stated)	-30.6%	-1.4%	.	-3.5%	-0.9%	10.5%	-0.3%	.
O=C(Nc1ccccc1[N+](=O)[O-])C1COc2ccccc2O1 (configuration not stated)	-7.8%	.	-10.9%	.	-24.0%	-4.4%	?	10.6%
O=C(CCCOc1ccccc1)N1CCN(c2ccccn2)CC1	-14.5%	10.6%	-15.7%	0.6%	?	0.2%	?	-10.8%
COc1ccc(CN2CCNC(=O)C2CC(=O)NCc2cnn(C)c2)cc1OC (configuration not stated)	5.9%	.	-14.4%	.	.	-0.5%	.	12.4%
O=C(OCc1ccc([N+](=O)[O-])cc1)C1CC(=O)N(c2ccccc2)C1 (configuration not stated)	0.7%	-7.6%	7.9%	0.9%	18.4%	-0.6%	17.1%	.
CC(C)Cc1nnc(NC(=O)CSc2nc(O)c(-c3ccccc3)c(=O)[nH]2)s1	.	.	0.0%	.	?	-4.4%	-0.3%[46.1 µM]	-6.6%
C=CCn1c(SCC(=O)N(CC)C2CCS(=O)(=O)C2)nc2scc(-c3ccccc3)c2c1=O (configuration not stated)	.	.	1.4%	.	-25.0%	.	?	-24.1%
CCOP(=O)(OCC)C(O)c1cccc([N+](=O)[O-])c1 (configuration not stated)	.	.	5.7%	.	2.0%[46.1 µM]	2.9%	?	51.9%
CCOC(=O)CC(NC(=O)c1ccccc1F)c1ccc(C)cc1 (configuration not stated)	.	.	3.6%	.	.	-0.3%	4.8%[46.1 µM]	15.7%
Cc1cncn1CCc1nc2c3ccccc3nc(SCC(=O)Nc3ccc(F)cc3)n2n1	.	-5.4%	.	4.0%	6.7%[46.1 µM]	.	.	-10.8%
COc1cccc(-c2cccc(NC(=O)C3CCN(C4CCOCC4)CC3)c2)c1	-7.2%	.	-17.5%	.	.	2.4%	.	-22.2%
CC1CCC(NC(=O)CNC(=O)Cc2cccc3ccccc23)CC1 (configuration not stated)	-3.3%	.	-4.0%	.	3.4%	0.8%	-24.3%[46.1 µM]	-3.8%
CCCCCNC(=O)c1ccc2c(=O)n(CCc3ccccc3)c(=O)[nH]c2c1	.	1.5%	.	0.7%	-1.2%[46.1 µM]	.	-2.1%[46.1 µM]	5.2%
CCc1ccccc1Nc1nn2c(=O)c3ccc(C(=O)NC(C)c4ccccc4)cc3nc2s1 (configuration not stated)	.	?	.	-5.9%	-22.9%[46.1 µM]	.	.	?
COc1ccc(Cl)cc1NC(=O)NCc1ccc2c(c1)OCO2	4.3%	.	-12.0%	.	.	-2.2%	.	-22.8%
O=C(NCc1ccco1)c1cc(S(=O)(=O)N2CCOCC2)ccc1Cl	7.6%	-5.3%	-2.4%	2.1%	9.9%	3.1%	9.6%	8.0%
CCn1cc(C(=O)N[C@@H](C)C(=O)NCCCO)c(=O)c2cc3c(cc21)OCO3	3.5%	.	2.8%	.	?	2.0%	0.0%[46.1 µM]	-1.4%
Cc1cc(N2CCCC2=O)cc(C)c1CN1C(=O)c2ccccc2C1=O	2.0%	15.1%	7.1%	1.3%	12.0%	17.7%	5.5%	.
CC(=O)Nc1c(-c2ccc(Cl)cc2)c(=O)c2ccccc2n1C	1.0%	.	2.8%	.	-23.7%	-0.4%	1.2%	-5.9%
Cc1ccc(-n2cc(-c3ccccc3)c3c(N4CCN(C)CC4)ncnc32)cc1	.	.	8.9%	.	?	-1.9%	?	0.0%
CCN(CC)CCn1c(=N)n(CCO)c2ccccc21	0.3%	-4.5%	0.5%	5.0%	0.2%	1.1%	-4.0%	-4.5%
